PINK1 modulator = modulators of PINK1 expression. PINK1 immunofluorescence, high-content cytometry, 24 h. Potency, µM (top dose mostly 76.6 µM), inactives show top-dose activation (PINK1 increase), most hits filed as activators. 410,000 compounds, 0.2% hits. AID 624263; active = well fitted activation curve with a large enough effect; inconclusive = small, poorly fitted or top-dose-only effect; inactive = flat fitted curve, though single readings scatter; cell line not stated here;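 further: potency means the concentration at half of the fitted maximal effect; % of control where 0% means no effect; nearly all actives have a fitted effect of over 65% in size; a mitochondrial uncoupler was the plate control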
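Measures PINK1 amount and localization on or inside mitochondria by immunofluorescence. Stable cells get compounds at 5 concentrations for 24 hours before fixation and staining; CCCP controls included.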
ClpP mod = qHTS Assay for Activators of ClpP; 340,000 compounds, 1.9% hits; Potency, µM (top dose mostly 57.5 µM), without a hit: at the top dose activity change, negative = active; ATP-dependent Clp protease proteolytic subunit (Bacillus subtilis (strain 168)), P80244; AID 651965, 2013; purified B. subtilis ClpP, FRET peptide cleavage, 20 min; active = well fitted falling curve with a large enough effect; inconclusive = small, poorly fitted or top-dose-only effect; inactive = no such curve, though single readings can be large or run the other way; further: potency means the concentration at half of the fitted maximal effect; the source files actives as falling curves though it sought activators and does not explain the sign; nearly all actives have a fitted effect of over 65% in size; many hits overshoot -100%
Target sequence (P80244 whole entry, looked up): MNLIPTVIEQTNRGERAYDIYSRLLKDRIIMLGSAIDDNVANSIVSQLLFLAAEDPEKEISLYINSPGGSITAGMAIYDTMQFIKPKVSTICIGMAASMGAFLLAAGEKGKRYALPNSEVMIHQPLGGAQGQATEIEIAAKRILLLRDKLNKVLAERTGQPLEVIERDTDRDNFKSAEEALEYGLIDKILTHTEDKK
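ClpP 10 microg/mL final, pH 8 Tris/KCl buffer with BSA, glycerol, Tween-20; compound pinned in; FRET-FV substrate; RT 20 min; Ex320/Em430; ΔFRET vs ADEP 5.8 microM, DMSO, no enzyme.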
D2 ag = activates the human D2 dopamine receptor; P14416; DiscoveRx PathHunter D2 beta-arrestin, luminescence, 90 min; 100% = 57 uM dopamine signal; activation, % (no concentration beside the values); 360,000 compounds, 0.084% hits; in the data active = activation above about 40%; inconclusive = about 15% to 40%; inactive = below about 15%; further: compound concentration not given in the record; the text of the record calls up to 30% inactive
Target sequence (P14416 whole entry, looked up): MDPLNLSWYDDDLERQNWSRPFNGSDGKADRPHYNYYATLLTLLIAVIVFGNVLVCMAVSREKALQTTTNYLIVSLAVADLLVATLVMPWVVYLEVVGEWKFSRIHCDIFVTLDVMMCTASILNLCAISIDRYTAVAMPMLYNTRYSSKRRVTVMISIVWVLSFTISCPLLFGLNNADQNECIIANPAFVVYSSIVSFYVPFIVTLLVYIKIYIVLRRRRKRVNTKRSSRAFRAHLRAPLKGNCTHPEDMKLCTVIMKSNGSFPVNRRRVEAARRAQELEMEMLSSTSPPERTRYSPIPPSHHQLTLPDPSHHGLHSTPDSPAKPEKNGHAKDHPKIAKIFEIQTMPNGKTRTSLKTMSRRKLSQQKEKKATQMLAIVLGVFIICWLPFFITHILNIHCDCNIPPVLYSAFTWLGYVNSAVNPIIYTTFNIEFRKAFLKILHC
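Agonist mode: compounds alone added to overnight-plated D2 PathHunter cells for 90 min at 37 C, with 57 uM final dopamine (EC100) defining full response. Beta-arrestin recruitment detected by chemiluminescent reagent, read after 1 h at ambient temperature.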
Sfp inh = Sfp phosphopantetheinyl transferase inhibition; Q9F4F7; Biochemical Sfp PPTase activity, qHTS; Potency, µM, for inactives: max response, negative = inhibition, most hits filed as inhibitors; 310,000 compounds, 3.5% hits; active means well fitted inhibition curve with a large enough effect; inconclusive means small, poorly fitted or top-dose-only effect, or another doubt; inactive means no such curve, though single readings can be large or run the other way;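 further: the enzyme is Sfp with the accession as filed and its product quenches rhodamine fluorescence; potency means the concentration at half of the fitted maximal effect; 0% = enzyme reaction without inhibitor and -100% = no enzyme wells; top concentration of the series not given in the record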
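Step 1, compound plus 15 nM Sfp-PPTase, 15 min, room temperature. Step 2, add rhodamine-CoA (5 uM) and BHQ-2-YbbR (12.5 uM). Step 3, read 525/598 nm fluorescence at 0 and 30 min.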
gsp antag = gsp mutant antagonism; gsp-mutant cells, cAMP HTRF, 30 min; control for the full effect not named in the record; Potency, µM (doses to about 76.9 µM), for the others: top-dose activity change, negative = inhibition, actives largely listed as inhibitors; 340,000 compounds, 0.4% hits; active = falling curve of any shape with a large fitted effect; inconclusive = falling curve, mostly with a smaller effect; inactive = flat or rising curve; cell line not stated here;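 further: intracellular cAMP measured with PDE inhibitor Ro 20-1724 present during compound exposure; potency means the concentration at half of the fitted maximal effect; on the % scale 0 is the no-effect control and ±100 the full control effect; nearly all actives have a fitted effect of over 65% in size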
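HTRF cAMP read-out (cAMP-d2 plus anti-cAMP antibody-K in lysis buffer, 30 min RT). Before lysis, cells are exposed to compounds with […] for 30 min at 37C in DPBS containing Ca/Mg, BSA and Tween 20.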
Menin MLL FP FL = inhibitors of human menin-MLL interaction, wild-type MLL peptide; Fluorescence polarization, fluorescein-MLL peptide displacement from menin; FP activity change, % at 61.4 µM; 290,000 tested, under 10 active; AID 1766; inconclusive = falling polarisation curve, or a change in total fluorescence; inactive = total fluorescence flat and polarisation flat or rising; no compound was filed as active; the % refers to the polarisation; negative = inhibition;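 further: % of control where 0% means no effect; inhibitors lower the polarisation; unlabelled MLL peptide was the positive control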
gsp agonist = activates gsp, the McCune-Albright syndrome mutation; 340,000 compounds, 0.13% hits; Potency, µM (doses to about 76.9 µM), for inactives: top-dose activation (cAMP increase), usual class: activators; AID 624287; gsp mutant cells, cAMP HTRF, 30 min; control for the full effect not named in the record; active = well fitted activation curve with a large enough effect; inconclusive = small, poorly fitted or top-dose-only effect, or another doubt; inactive = no such curve, though single readings can be large or run the other way; cell line not stated here;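 further: phosphodiesterase inhibitor Ro 20-1724 added with compounds to block cAMP breakdown; potency means the concentration at half of the fitted maximal effect; nearly all actives have a fitted effect of over 60% in size; about a fifth of the inactives were tested at one dose only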
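Cells in DMEM/10% FBS with G418 were pretreated with compounds in DMSO plus […] (300 uM stock) for 30 min at 37C. cAMP was measured by HTRF (cAMP-d2 plus anti-cAMP antibody-K) after 30 min at room temperature.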
The depositor's hits bear a star; u = inconclusive; x = not tested or not shown; & = joins results of further samples; [ ] = another dose, or the depositor's remark. Random draw from the library. Share with any hit: about 5.1%.

SMILES	PINK1 modulator	ClpP mod	D2 ag	Sfp inh	gsp antag	Menin MLL FP FL	gsp agonist
O=C(CCCn1c(=S)[nH]c2ccsc2c1=O)Nc1ccc2c(c1)OCO2	-0.7%	x	8.8	-12%	-40%	-0.8	7%[15.4 µM]
COc1ccc(OC)c(C(C)NC=O)c1 (stereo unspecified)	-3.1%[38.3 µM]	0.1%	0.5	11%	7%	-2.4	-31%[inhibitor]
O=C(Cc1ccc(Cl)cc1Cl)Nc1cccc(S(=O)(=O)Nc2ccccc2F)c1	-3.3%	-3.8%	0.7	8.9µM*	-18%	14	-11%
Cc1cccc(NC(NC(=O)c2ccccc2[N+](=O)[O-])C(Cl)(Cl)Cl)c1 (stereo unspecified)	1.8%	-2.8%	-4.1	4%	1%	5.6	-30%[inhibitor]
Cc1cccc(N(C)C(=O)c2cnn(-c3ccccc3)c2C)c1	0.7%	-0.9%	-4.1	-21%	1%	0.0	-5%
CC(=O)Nc1cccc(/C(C)=N/NC(=O)c2c(-c3ccccc3Cl)noc2C)c1	-0.3%	-1.1%	-0.4	16%	-10%	7.6	12%[15.4 µM]
O=C(Nc1ccccc1O)c1cc2cc(Br)ccc2oc1=O	-0.6%	0.1%	0.7	9%	-2%	0.9	8%
Cc1cnn(C(=O)c2ccccc2Br)c1	-4.5%[38.3 µM]	-2.8%	-2.9	18%	2%	6.7	-6%
CC(=O)c1ccc(CC2SC(N)=NC2=O)cc1 (stereo unspecified)	0.1%	-2.0%	-2.2	11%	4%	-0.9	3%
O=C(NS(=O)(=O)Nc1ccccn1)c1c[nH]c2ccccc12	-0.4%	-5.2%	5.1	19%	-9%	-1.8	-6%

The list goes on (3 carried over from the part before).
SMILES	PINK1 modulator	ClpP mod	D2 ag	Sfp inh	gsp antag	Menin MLL FP FL	gsp agonist
Cc1cnn(C(=O)c2ccccc2Br)c1	-4.5%[38.3 µM]	-2.8%	-2.9	18%	2%	6.7	-6%
CC(=O)c1ccc(CC2SC(N)=NC2=O)cc1 (stereo unspecified)	0.1%	-2.0%	-2.2	11%	4%	-0.9	3%
O=C(NS(=O)(=O)Nc1ccccn1)c1c[nH]c2ccccc12	-0.4%	-5.2%	5.1	19%	-9%	-1.8	-6%
Cn1cc(-c2ccccc2C(=O)O)c(=O)c2cc(Cl)ccc21	0.4%	x	0.0	10%	3%	-5.5	2%
CC(=O)C[C@@H](O)CC(=O)[C@H]1OC(=O)CCCCCCCCc2ccccc21	1.2%	-3.9%	-3.4	x	4%	x	u
Cc1c(C(=O)O)oc2c1/C(=N\O)CCC2	-2.2%	2.0%	-3.2	20%	17%	-2.2	1%
NS(=O)(=O)c1ccc(CCNC(=O)c2cccc(S(=O)(=O)N3CCCC3)c2)cc1	-1.0%	-4.2%	1.3	x	0%	x	28%
COCCn1c(=O)c(-c2ccc(Cl)cc2)nc2cnc(Nc3ccccc3)nc21	1.7%	x	x	22%	x	2.1	x
COc1cccc(NC(=O)COC(=O)CCSc2ccccc2)c1	0.2%	0.0%	1.4	x	0%	x	3%[15.4 µM]
Cc1ccc(CN2CCN(Cc3cnc(N4CCOCC4)s3)CC2CCO)cc1 (stereo unspecified)	0.1%	3.1%	-3.9	3%	0%	-0.3	-8%
CCOC(=O)CC1COCCN1C(=O)c1cc(COc2ccc(F)c(F)c2)on1 (stereo unspecified)	-0.4%	-0.2%	-2.9	12%	-6%	-6.4	5%
Cc1cccc2sc(NNC(=O)c3ccc(S(=O)(=O)N4CCCC(C)C4)cc3)nc12 (stereo unspecified)	u	-0.4%	11	u	-15%	2.3	-27%
Cc1ccccc1NC(=O)Cc1nnc(SCC(=O)NC2=NCCS2)n1C	-2.7%	x	-1.7	7%	10%	5.0	3%[15.4 µM]
COc1ccc(C2N=C(c3ccccc3)NO2)cc1OC (stereo unspecified)	0.9%	x	-2.1	11%	1%	2.6	-7%[15.4 µM]
COc1ccc(CCNC(=O)c2c(O)c3ccccc3n(C)c2=O)cc1	3.6%	x	-3.8	0%	-9%	0.9	-9%
O=C(CCN1CCCCC1c1cccnc1)NCc1ccccc1 (stereo unspecified)	-4.2%	2.2%	0.5	11%	9%	-0.5	21%
C#CCNC(=O)C1=C[C@H](c2csc3ccccc23)[C@@H](CCCO)[C@H](OCC)O1	1.4%	-2.8%	-0.8	-1%	-5%	0.4	x
CCN(CC)C(=O)COc1ccc(/C(C)=N/NC(=O)c2ccccc2Br)cc1	1.8%	-0.4%	-2.2	19%	7%	-1.7	2%
Cc1n[nH]c(C)c1C(=O)CC1(O)C(=O)N(CCc2ccccc2)c2ccc(Br)cc21 (stereo unspecified)	15%[38.3 µM]	-1.5%	-0.5	-9%	-1%	4.4	-13%
COCC(=O)N(c1ccccc1)C(C)C(=O)OC (stereo unspecified)	0.6%	0.5%	0.4	3%	-1%	-2.5	-1%
O=S(=O)(NCc1ccco1)c1ccccc1Br	3.4%	-1.8%	-2.3	2%&-6%	5%	-7.5&-1.1	9%
CCn1cc(C(=O)NCc2ccco2)c(=O)c2cc(S(=O)(=O)N3CCc4ccccc4C3)ccc21	0.1%	-10%	-1.8	u	-11%	3.4	1%
Cc1ccc(-n2ncc3c(NCCCOC(C)C)ncnc32)c(C)c1	8.3%	-9.0%	-1.3	-1%	-1%	0.8	-3%
CCOc1ccc(NC(=O)CN(C)C(=O)C2CCCO2)cc1OCC (stereo unspecified)	-0.1%	21%	-2.7	x	9%	x	-32%
CC(=O)Nc1ccc2nc(C3CCCCC3)[nH]c2c1	-2.8%	-2.3%	-3.5	14%	1%	0.1	-6%
COc1ccc(-c2n[nH]c(=S)n2/N=C/C=C\c2ccccc2OC)cc1	13%	1.0%	0.9	-20%	-30%	1.0	5%
O=C(CCSc1ccc(Cl)cc1)NN=C1CCCCCC1	0.6%	x	-0.3	9%	3%	0.1	7%[15.4 µM]
C(=N\N=C\c1ccncc1)/c1ccncc1	1.0%	-0.1%	-0.1	x	3%	x	8%
COc1cccc(/C=N/Nc2ccc(Cl)nn2)c1	7.3%	-3.0%	3.7	u	-2%	-1.2	25%
CCCNC(=O)c1cc(S(=O)(=O)N2CCCCC2)c[nH]1	1.8%	-0.4%	-8.2	11%	9%	-1.6	-1%
COc1ccc(C(=O)NNC(=O)CNC(=O)C2CCCCC2)cc1	-0.6%	1.0%	-0.7	19%	5%	1.1	2%
NC(CO)c1cn([C@@H](CCC(=O)O)C(=O)N2CCNCC2)nn1 (stereo partly specified)	1.7%	-0.1%	0.5	-10%	8%	-2.9	x
CCCCn1c(N)c(N(CCOC)C(=O)CSc2nnc(C)n2-c2ccc(OC)cc2)c(=O)[nH]c1=O	-0.1%	-15%	-4.5	x	7%	x	11%
COCCCN(CC(=O)Nc1ccc(F)cc1)S(=O)(=O)c1cccs1	2.4%	-1.6%	-2.5	x	8%	x	19%
CC(=O)c1ccc(NC(=O)Cn2c3ccccc3c3nc(=O)cc(C)n32)cc1	3.1%	-4.9%	-1.6	1%	-20%	3.5	1%
COc1ccc(-n2c(C)nc3cc(C(=O)O)ccc32)cc1	-1.7%[38.3 µM]	-3.5%	1.9	14%	-10%	7.2	7%
COc1cc(/C=C2/SC(=O)N(Cc3ccccc3Cl)C2=O)ccc1OCc1ccncc1	9.8%	0.0%	-5.1	3%	2%	-1.2	3%
CCOC(=O)c1ccccc1NC(=O)c1ccc2nccnc2c1	-0.2%	-13%	0.7	-3%	-15%	-1.0	7%
CC1(C)C(c2ccccn2)=[N+]([O-])C(C)(C)N1O	1.0%[38.3 µM]	0.5%	4.0	3%	11%	-2.4	10%
C=CCN1C(c2cccc(C(F)(F)F)c2)=CS/C1=C(/C#N)c1nnc(N2CCOCC2)n1-c1ccccc1	2.2%	1.0%	2.3	-29%	u	4.6	-12%
CN(C)C(=O)c1cnc(-c2ccccc2)nc1-c1ccccc1	2.1%	-1.2%	3.1	2%	-4%	63[activator]	2%[15.4 µM]
CCn1c2ccccc2c2cc(/C=N/NC(=O)c3ccccc3)ccc21	0.8%	22µM*	-2.5	27%	2%	3.2	-7%
COc1ccc(C(=O)N2CCN(CCc3ccccc3)CC2)cc1[N+](=O)[O-]	-0.8%	0.7%	-4.5	-1%	-13%	x	-7%[15.4 µM]
CN1CCN(c2ccc(CNS(=O)(=O)c3ccc(F)cc3Cl)cc2)CC1	-0.3%	-0.5%	-6.4	4%	14%	x	-23%
Cc1nn(CC(=O)NCCc2ccc(Cl)cc2)c(C)c1[N+](=O)[O-]	-1.5%[38.3 µM]	-1.0%	-2.0	8%	7%	2.7	16%
Cc1cc(C(=O)N2CCN(C(=O)c3ccco3)CC2)ccc1[N+](=O)[O-]	0.2%	0.4%	-2.9	3%	-4%	-0.5	-7%
NC1=NC[C@H](c2ccccc2)N1CCc1cccc(F)c1	0.5%	1.2%	-6.2	21%	10%	1.9	-3%
CCCc1cc(=O)[nH]c(SCC(=O)Nc2cc3c(cc2C(C)=O)OCO3)n1	2.3%	-15%	-2.0	11%	-8%	-1.8	9%
O=C(CSc1nnc(SCc2ccccc2)s1)NNC(=S)Nc1ccccc1	-2.5%	2.3%	-4.2	-17%	-23%	4.0	-51%[inhibitor]
COc1cc(C(=O)N/C(=C\c2cn(C)c3ccccc23)C(=O)NCCCn2ccnc2)cc(OC)c1OC	-1.0%	-2.6%	-2.3	24%	6%	-1.5	29%
CCCCCNC(=O)C(C#N)c1nc2ccccc2nc1N1CCCC1 (stereo unspecified)	5.4%	-2.4%	-0.2	0%	2%	u	7%
COc1ccc2nc(N3CCCC(C(=O)NCCCN4CCN(C)CC4)C3)sc2c1 (stereo unspecified)	-4.4%	-0.9%	-4.5	4%	-7%	1.2	14%

From PubChem
